# Source: PubChem
# PKD1 inh = PKD1 (human) kinase inhibition | Q15139 | PKD1 kinase fluorescence polarization assay | inhibition, %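 (about 10 µM by stock and volumes)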 | 0.056% of 200,000 active | AID 797;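 active = inhibition of 50% or more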;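 note: controls were vehicle for no effect and a reference inhibitor for full effect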
# Target sequence (Q15139 whole entry, looked up): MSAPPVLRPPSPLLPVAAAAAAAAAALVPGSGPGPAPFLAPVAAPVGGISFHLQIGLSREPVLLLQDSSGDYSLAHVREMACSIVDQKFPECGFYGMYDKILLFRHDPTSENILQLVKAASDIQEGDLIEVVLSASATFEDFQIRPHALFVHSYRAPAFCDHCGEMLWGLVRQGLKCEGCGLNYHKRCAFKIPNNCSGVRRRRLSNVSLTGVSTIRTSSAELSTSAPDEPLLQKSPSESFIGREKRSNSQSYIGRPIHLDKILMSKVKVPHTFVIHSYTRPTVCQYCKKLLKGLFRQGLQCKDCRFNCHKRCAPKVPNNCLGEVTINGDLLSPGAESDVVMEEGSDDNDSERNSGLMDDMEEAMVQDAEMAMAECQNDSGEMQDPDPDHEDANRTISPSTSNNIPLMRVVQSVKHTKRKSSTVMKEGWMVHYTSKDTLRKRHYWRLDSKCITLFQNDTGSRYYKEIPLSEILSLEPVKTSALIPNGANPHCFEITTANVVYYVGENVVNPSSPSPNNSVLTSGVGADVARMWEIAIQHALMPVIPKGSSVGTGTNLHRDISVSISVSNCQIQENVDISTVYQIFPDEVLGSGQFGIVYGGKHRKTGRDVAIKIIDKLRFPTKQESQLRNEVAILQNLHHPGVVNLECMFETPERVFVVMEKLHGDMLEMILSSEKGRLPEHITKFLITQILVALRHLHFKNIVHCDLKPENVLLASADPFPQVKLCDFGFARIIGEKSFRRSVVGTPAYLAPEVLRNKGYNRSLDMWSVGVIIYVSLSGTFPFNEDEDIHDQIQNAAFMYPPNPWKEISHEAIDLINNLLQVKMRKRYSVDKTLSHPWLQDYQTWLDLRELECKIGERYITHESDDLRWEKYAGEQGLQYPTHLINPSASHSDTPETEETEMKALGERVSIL
# RGS16-Gao = regulators of human RGS16-Galphao interaction. O15492+P09471. bead-based flow cytometry RGS16-Galphao binding, fluorescence; actives lie on both sides. binding response (% of control), % at 10 µM. 0.38% of 220,000 active;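 active = below 25% or above 175%, edge rows of some plates excepted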;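 note: Galphao activated by GDP with aluminum fluoride before binding; 100% = wells without compound and 0% = beads without RGS; some results beyond the cut were filed as inactive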
# HSV augment = HSV replication enhancement; HSV replication augmentation in cells, fold increase; maximum fold increase; 0.005% of 220,000 active;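 active = peak rise of 1.5-fold or more in the series; tested in PC3 cells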;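 note: first round at 10 µM; read as green reporter fluorescence; hits show the peak of a series up to 25 µM; 1 = signal of infected wells without compound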
# GALR2 agonist = agonists of human galanin receptor 2 (GALR2) | 0.48% of 140,000 active | O43603 | GALR2-expressing cells, agonist activation read-out | activation, %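 (tested at 5 µM)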;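 active = above mean plus 3 SD of all compounds, about 5% in these data, not always enough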;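 note: 0% = vehicle buffer wells and 100% = reference agonist at full effect; tested in CHO reporter cells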
# INS promoter inh = TRM-6 insulin promoter activity inhibition; 0.9% of 130,000 active; inhibition, % at 2 µM; AID 1273; TRM-6 cells (human fetal islet line), insulin promoter-eGFP reporter, imaging; reporter expression induced with tamoxifen;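 active = inhibition above the mean plus 3 SD, with well images judged a real hit on visual review, cut at about 60% in these data, passing the limit was not always enough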
# INS promoter inh cell count = also measured in INS promoter inh; calls as there; normalized cell count, %; measured here: cell count, toxicity; reference of the scale not given here;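 cells exposed to compound for 48 h; stained nuclei by imaging scaled within each plate; lower means fewer cells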
# HSV augment primary fold = further read-out of HSV augment, marked with its call; fold increase; compound at 10 µM; measured here: primary screen fold increase 10 uM; tested in PC3 cells;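 GFP signal in the first replicate; 1 = infected wells without compound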
# Numbers without * were called inactive; i = inactive; nt = no result given.
SMILES,PKD1 inh,RGS16-Gao,HSV augment,HSV augment primary fold,GALR2 agonist,INS promoter inh,INS promoter inh cell count
O=C1NCCCC1C(=O)N/N=C/c1ccccc1[N+](=O)[O-] (centres undefined),nt,105.7,i,1.16,nt,nt,nt
Oc1ccccc1C=NC1CCCCC1N=Cc1ccccc1O (centres undefined),-1.9,100.5,i,1.07,nt,13.3,49.8
Cc1ccccc1NC(=O)NCc1ccco1,-4.9,119.6,i,1.03,-2.5,13.6,102.0
O=C(CSc1nnc(SCc2ccccc2)s1)N/N=C/c1ccc(Cl)cc1Cl,-10.0,108.4,nt,nt,-0.7,nt,nt
C=CCn1c(SCC(=O)Nc2ccc(C(=O)O)cc2)nnc1-c1cccnc1,nt,97.7,i,0.93,nt,nt,nt
CCN(CC)C(=O)CCc1nc2sc3c(c2c(=O)[nH]1)CCCC3,-2.5,100.8,i,1.1,-1.0,-3.2,43.6
CNc1oc(-c2ccccc2Cl)nc1P(=O)(c1ccccc1)c1ccccc1,-1.7,112.9,i,0.97,0.5,nt,nt
O=C(Nc1cccc(Cl)c1)N1CCN(C/C=C/c2ccccc2)CC1,-8.4,83.5,i,0.74,-2.0,-21.9,117.1
COc1ccc(C=C(c2ccc(OC)cc2)c2ccc(OC)cc2)cc1,-3.4,104.9,i,0.94,-1.9,39.1,131.4
COc1ccc(-c2c(C(F)(F)F)nn(C)c2NC(=O)c2cccnc2)cc1,nt,98.4,i,0.92,nt,nt,nt
C#CC(CC)(CC)NC(=O)Nc1ccccc1C(=O)OC,-2.6,93.6,i,1.02,nt,-90.0,85.9
CCCCCCCC1(C)NC(=O)N(CC(=O)Nc2cc(C)on2)C1=O (centres undefined),-0.8,105.4,i,0.93,nt,6.7,123.5
CC1=C(C(=O)N2CCOCC2)C(c2ccc(Br)cc2)NC(=S)N1c1ccccc1 (centres undefined),-0.2,100.7,i,0.9,nt,nt,nt
O=C1Nc2ccccc2OCc2c1cccc2[N+](=O)[O-],11.8,93.0,i,0.97,nt,nt,nt
CC(=O)NC(Cc1ccc(O)cc1)C(=O)NN (centres undefined),-4.0,96.9,i,0.85,nt,nt,nt
CCOC(=O)c1sc(/N=C/Nc2nc(C)c(C(=O)OCC)s2)nc1C,-6.1,103.6,i,0.98,-0.2,9.1,55.9
C#CCOCCOCCOCCNc1nc(N2CCN(C(=O)[C@H]([C@@H](C)CC)n3cc([C@@H](N)CO)nn3)CC2)nc(N2CCN(C(=O)[C@H]([C@@H](C)CC)n3cc([C@@H](N)Cc4ccc(O)cc4)nn3)CC2)n1,3.5,18.0*,i,0.83,nt,nt,nt
Nc1nc(CN2CCc3ccccc3C2)nc(Nc2ccccc2)n1,-0.2,103.2,i,0.75,-2.2,-338.1,48.8
COc1ccc2nc(COC(=O)c3ccco3)c(C(C)=O)[n+]([O-])c2c1,-1.5,103.8,i,0.9,-2.5,nt,nt
C=CCNC(=O)c1scc2c1CCCC2,-3.0,89.1,i,0.91,-1.7,42.3,120.1

# 2 entries from above, with tabs:
structure	PKD1 inh	RGS16-Gao	HSV augment	HSV augment primary fold	GALR2 agonist	INS promoter inh	INS promoter inh cell count
O=C1NCCCC1C(=O)N/N=C/c1ccccc1[N+](=O)[O-] (centres undefined)	nt	105.7	i	1.16	nt	nt	nt
Oc1ccccc1C=NC1CCCCC1N=Cc1ccccc1O (centres undefined)	-1.9	100.5	i	1.07	nt	13.3	49.8

# Carrying on.
SMILES,PKD1 inh,RGS16-Gao,HSV augment,HSV augment primary fold,GALR2 agonist,INS promoter inh,INS promoter inh cell count
Cc1cc(C(=O)C(=O)N(C)C)c(C)n1-c1ccc([N+](=O)[O-])cc1,-11.5,101.2,i,1.36,-1.0,10.7,88.6
CCCCSc1nc(O)c(C2OC(=O)c3c2ccc(OC)c3OC)c(=O)n1-c1ccccc1 (centres undefined),-7.5,102.0,i,1.01,0.0,17.2,91.1
O=C(CN1C(=O)C2C3C=CC(C3)C2C1=O)N1CC=C(c2ccccc2)CC1 (centres undefined),17.5,97.1,i,1,-2.5,37.5,67.8
Cc1c(N(C)C(=O)c2ccco2)c(=O)n(-c2ccccc2)n1C,-13.8,103.3,i,0.89,-0.8,-87.5,111.2
COC(=O)c1c(NC(=O)c2nn(C)cc2Cl)sc2c1CCCC2,1.8,101.7,i,0.76,-1.2,-3.1,122.6
CCC1(CC)N=C(c2ccccc2)C(=S)N1,-3.5,95.9,i,0.88,nt,-20.0,157.1
Nc1ccc(N(CCO)CCO)cc1,6.7,91.4,i,1.13,nt,nt,nt
CCO[C@H]1OC(C(=O)N2CCN(Cc3ccc4c(c3)OCO4)CC2)=C[C@@H](c2ccc(Br)cc2)[C@@H]1CCCO,13.1,95.4,i,0.89,nt,nt,nt
N/C(=N\NC(=O)c1ccccc1)c1cc2ccccc2oc1=O,-1.6,116.8,i,0.97,nt,-16.7,119.0
Cc1ccc(NC(=O)Nc2cccs2)c(Cl)c1,-3.9,99.7,i,0.97,-3.4,37.8,122.8
CCOC(=O)c1sc(NC(=O)c2ccc(S(=O)(=O)N3CCCCCC3)cc2)nc1-c1ccccc1,-2.9,101.5,i,0.93,-1.4,nt,nt
COc1ccc(CN2C(=O)CC(Cc3ccc(C)cc3)C2=O)cc1OC (centres undefined),-18.7,83.8,i,0.95,-0.6,nt,nt
N=c1cc(C2(O)CCCCC2)n2c(nc3ccccc32)s1,6.9,93.5,i,0.91,-0.9,46.7,102.2
COc1ccc(N(CC(=O)Nc2cc(C)ccc2C)S(=O)(=O)c2c(C)nn(C)c2C)cc1,5.4,92.7,nt,nt,-2.2,nt,nt
O=C(Cn1nnc(-c2ccccc2)n1)NNC(=O)c1ccc(Br)cc1,-4.0,101.6,i,0.84,nt,nt,nt
O=C(c1ccc(F)cc1)N1CCOCC1,-2.0,36.7,i,1.08,nt,nt,nt
O=C(CCC(=O)c1ccc(Oc2ccccc2)cc1)Nc1cccc(Cl)c1,-2.1,98.8,i,1.17,0.4,nt,nt
CC(=O)N1c2ccccc2NC2=C(C(=O)CCC2)C1c1ccc(F)cc1 (centres undefined),1.4,105.3,i,0.91,-1.2,nt,nt
Cc1ccc(OCCC(=O)O)cc1,nt,100.0,i,0.97,nt,nt,nt
COc1ccc(/C=C/C(O)=C(\C#N)c2nnc(N3CCOCC3)n2-c2ccccc2)cc1OC,1.8,102.5,i,1.09,nt,nt,nt
CN(c1ccccc1)S(=O)(=O)c1cccc(NC(=O)CSc2ncc(C(F)(F)F)cc2Cl)c1,1.5,103.6,i,1.13,-1.4,nt,nt
COC(=O)Oc1cncc(C(=O)O)c1,3.1,107.6,i,1.02,0.6,13.9,105.5
CC1=C(C(=O)Nc2ccccc2)C(c2cccnc2)n2nc(-c3cccnc3)nc2N1 (centres undefined),-9.4,99.3,i,0.81,-2.6,nt,nt
O=C(N/N=C1/CCSC1)c1cccc([N+](=O)[O-])c1,-6.7,86.8,i,0.94,-1.5,2.0,90.1
CC(NC(=O)C(=S)N1CCN(C)CC1)c1ccccc1 (centres undefined),7.3,101.3,i,0.98,nt,nt,nt
COc1ccccc1N1CC(C)(C)C(=O)N(C(=O)c2c(F)cccc2Cl)C1=S,nt,90.2,i,1.23,nt,nt,nt
O=S(=O)(c1ccccc1)N1CCSC1c1ccco1 (centres undefined),-6.9,97.4,i,1.1,-1.2,32.1,134.9
CC(=O)Nc1ccccc1C(=O)C(=O)Nc1cccc(C(=O)N2CC(C)CC(C)C2)c1 (centres undefined),-5.9,100.1,i,0.9,nt,16.7,188.8
Cc1ccc(C(=O)Nc2cc(C(C)C)c(O)c(C(C)C)c2)cc1,11.1,105.5,i,0.63,-0.5,nt,nt
Cc1ccc(OC(=O)CCC(=O)N2CCc3ccccc32)cc1,-5.2,102.5,i,0.66,-2.0,-29.0,111.6
COc1cc(SC)ccc1C(=O)NCc1ccc(C)cc1,-9.2,95.8,i,1.08,-1.1,-45.2,71.7
CC(=O)C1=C(O)C(=O)N(c2ccc(C)cc2)C1c1ccc([N+](=O)[O-])cc1 (centres undefined),2.6,101.2,i,0.94,nt,nt,nt
CC1CCCCC1NC(=O)Cn1nnc2ccccc2c1=O (centres undefined),-3.9,100.0,i,0.84,nt,nt,nt
Cc1ccc(/C=N/Nc2ccc(Cl)c(C(=O)O)c2)s1,1.5,94.8,i,1.01,-0.6,-35.9,78.5
O=C1CNC(=O)/C1=C/c1ccc(O)cc1,0.0,100.4,i,0.91,-1.2,-2.9,35.8
O=C(Cc1ccc2c(c1)OCCO2)N1CCN(S(=O)(=O)c2cccc(C(F)(F)F)c2)CC1,-20.0,102.4,i,0.9,-1.7,29.7,69.7
CCCCCCc1cc2cc(S(=O)(=O)c3ccc(F)c(Cl)c3)c(=O)oc2cc1O,-1.8,129.9,i,1.17,19.3*,nt,nt
O=C(CSc1ncc(-c2ccccc2)n1CC1CCCO1)N1CCCCC1 (centres undefined),7.3,103.3,i,0.83,-0.1,0.0,112.1
COc1cc(Cl)c(S(=O)(=O)N2CCOCC2)cc1Cl,-4.1,93.4,i,0.95,-1.0,-31.2,61.0
Cc1cc(NN)nc(NS(=O)(=O)c2ccc(Cl)cc2)n1,1.9,101.8,i,0.98,nt,31.2,134.5
Cc1ccc2c(c1)NCC(C(=O)NCc1ccccc1)O2 (centres undefined),-8.5,99.3,nt,nt,-0.6,20.0,67.9
COc1cccc(Cl)c1NC(=O)N1CCc2c([nH]c3ccccc23)C1C(F)(F)F (centres undefined),nt,96.1,i,0.95,nt,nt,nt
COc1ccc(C2=Nn3c(nnc3-c3ccc(OC)cc3)SC2)cc1,-8.9,111.6,i,0.52,0.5,nt,nt
Cc1nnn(-c2nonc2N)c1C(=O)N/N=C/c1cccc2ccccc12,0.5,104.1,i,0.99,2.9,nt,nt
C=CCn1c2ccccc2c2nnc(SC(CC)C(=O)Nc3sc4c(c3C#N)CCCC4)nc21 (centres undefined),-6.4,127.0,i,0.95,-3.6,46.0,123.9
O=C1CCN(Cc2ccccc2)C(=O)N1c1ccccc1,nt,105.1,i,0.93,nt,nt,nt
CCOC(=O)/C(C#N)=N\Nc1ccc(S(=O)(=O)Nc2nc(C)cc(C)n2)cc1,9.6,101.8,i,1.04,-1.4,43.3,134.6
O=S(=O)(/C=C/c1ccccc1)Nc1ccc(N2CCOCC2)cc1,7.1,96.2,i,0.86,-2.1,30.8,104.0
Cc1nc(-c2ccncc2)sc1C(=O)Nc1ccc(Br)cc1,-0.5,95.2,i,0.89,nt,nt,nt
COc1ccccc1-c1nc(-c2ccccn2)no1,-3.0,102.0,i,0.88,-1.2,nt,nt
CC1CN(c2nn3c(=O)c4ccccc4nc3c3ccccc23)CC(C)O1 (centres undefined),-11.2,93.7,i,0.94,0.8,nt,nt
N#Cc1c2n(cnc1=O)CCCCC2,-6.1,100.3,i,1,-2.5,17.9,45.2

# Entries of single compounds as entered above. Values in the order: PKD1 inh | RGS16-Gao | HSV augment | HSV augment primary fold | GALR2 agonist | INS promoter inh | INS promoter inh cell count
# COc1ccccc1N1CC(C)(C)C(=O)N(C(=O)c2c(F)cccc2Cl)C1=S in the list: nt | 90.2 | i | 1.23 | nt | nt | nt
# COc1cc(Cl)c(S(=O)(=O)N2CCOCC2)cc1Cl in the list: -4.1 | 93.4 | i | 0.95 | -1.0 | -31.2 | 61.0
# CC(NC(=O)C(=S)N1CCN(C)CC1)c1ccccc1 (centres undefined) in the list: 7.3 | 101.3 | i | 0.98 | nt | nt | nt
# CCOC(=O)/C(C#N)=N\Nc1ccc(S(=O)(=O)Nc2nc(C)cc(C)n2)cc1 in the list: 9.6 | 101.8 | i | 1.04 | -1.4 | 43.3 | 134.6
# C=CCn1c2ccccc2c2nnc(SC(CC)C(=O)Nc3sc4c(c3C#N)CCCC4)nc21 (centres undefined) in the list: -6.4 | 127.0 | i | 0.95 | -3.6 | 46.0 | 123.9

# With a hit mark in GALR2 agonist (from the list above):
smiles | PKD1 inh | RGS16-Gao | HSV augment | HSV augment primary fold | GALR2 agonist
CCCCCCc1cc2cc(S(=O)(=O)c3ccc(F)c(Cl)c3)c(=O)oc2cc1O | -1.8 | 129.9 | i | 1.17 | 19.3*
